# Compound activity: PubChem BioAssay, several laboratories
# Mtb H37Rv: M. tuberculosis H37Rv growth inhibitors, H37Rv strain (AID 1626); M. tuberculosis H37Rv growth inhibition; higher % means a stronger effect; 220,000 compounds, 0.95% hits; inhibition, % at 10 µM, or IC50 in µM where a hit was titrated;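 active = confirmed in a dose series; inconclusive = inhibition above 80% but not taken into the dose series; inactive = below 80% or under 30% at every dose of the series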;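 note: bacteria incubated seven days before Alamar blue readout; 0% = bacteria only wells and 100% = bacteria with antibiotic wells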
# Arbovirus inh: antivirals against arbovirus infection, primary screen, cell-based, full library, 10K replicate subset | arbovirus infection cell-based antiviral screen | inhibition, % at 10 µM | 200,000 compounds, 0.37% hits;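 active = inhibition from about 30%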;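 note: bluetongue infection of BSR cells; cell survival read as ATP light after 72 h; 0% = infected wells without compound and 100% = uninfected wells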
# RecA splice inh: Mtb RecA intein splicing inhibitors, primary screen, biochemical, fluorescence, HTS; Protein RecA (Mycobacterium tuberculosis (strain ATCC 25618 / H37Rv)), P9WHJ3; cell-free RecA intein splicing; inhibition, %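 (about 9 µM by stock and volumes)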; 290,000 compounds, 0.75% hits; in the data active = inhibition above about 30%; inconclusive = no clear call, values can overlap the other calls;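 note: 0% = vehicle wells and 100% = reference inhibitor control wells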
# Target sequence (P9WHJ3 whole entry, looked up, canonical isoform): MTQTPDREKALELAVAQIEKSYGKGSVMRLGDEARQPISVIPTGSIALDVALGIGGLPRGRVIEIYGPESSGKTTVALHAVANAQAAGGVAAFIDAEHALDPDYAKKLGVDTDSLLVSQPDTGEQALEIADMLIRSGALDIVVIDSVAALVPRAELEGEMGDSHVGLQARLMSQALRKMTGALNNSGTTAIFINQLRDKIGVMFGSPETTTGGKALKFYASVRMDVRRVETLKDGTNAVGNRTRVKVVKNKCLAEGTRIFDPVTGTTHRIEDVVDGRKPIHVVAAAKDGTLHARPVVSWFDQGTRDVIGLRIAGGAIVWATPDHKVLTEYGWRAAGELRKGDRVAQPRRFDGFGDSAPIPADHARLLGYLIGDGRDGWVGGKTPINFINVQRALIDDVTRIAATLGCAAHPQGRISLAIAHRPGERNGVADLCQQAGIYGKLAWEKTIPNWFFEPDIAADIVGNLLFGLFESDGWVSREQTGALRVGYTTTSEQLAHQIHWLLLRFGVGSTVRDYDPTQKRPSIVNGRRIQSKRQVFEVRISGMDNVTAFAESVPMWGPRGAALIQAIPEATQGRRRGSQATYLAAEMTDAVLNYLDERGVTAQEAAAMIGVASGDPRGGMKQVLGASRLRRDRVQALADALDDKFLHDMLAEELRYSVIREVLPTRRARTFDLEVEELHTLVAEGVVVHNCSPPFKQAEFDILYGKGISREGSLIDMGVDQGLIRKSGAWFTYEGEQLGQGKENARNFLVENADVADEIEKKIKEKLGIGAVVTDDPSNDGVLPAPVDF
# YopH inh: YopH tyrosine phosphatase inhibitors, primary screen, biochemical, fluorescence Ex485/Em525 | inhibition, %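 (about 10 µM by stock and volumes)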 | 140,000 compounds, 0.16% hits | AID 898, 2007;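 active = inhibition of 50% or more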;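 note: controls were vehicle for no effect and minimum signal wells for full effect; inactives centre near -20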
# Mtb betalactam: beta-lactam sensitization of Mtb H37Rv, H37Rv. M. tuberculosis H37Rv growth with meropenem, percent inhibition; hits of this screen are not shown here. inhibition, % at 25 µM. 330,000 compounds, 0.27% hits. AID 434955, 2010;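 active = about 74% or more and at least 40 points above the plate without the antibiotic, then above 30% in a dose series; inconclusive = first-round hits that could not be retested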;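 note: growth measured after seven days incubation then overnight dye step; 0% = bacteria only wells and 100% = bacteria with antibiotic; twin plates without the antibiotic show which effects depend on it; some results filed as inactive read as strong as hits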
# Arbovirus inh repeat: recorded beside Arbovirus inh, whose call it bears; inhibition, %; measured here: 10K subset replicate screen; many hits read low in the repeat;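 first of two repeat runs on a subset; 0% = infected and 100% = uninfected wells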
# Active calls of the source: *; ? = inconclusive; . = not tested or not shown; & = joins results of further samples. Only part of the results is shown; count on the stated rates, not on these rows.
SMILES,Mtb H37Rv,Arbovirus inh,RecA splice inh,YopH inh,Mtb betalactam,others
COC(=O)c1cc(-c2ccc(OC)c(OC)c2)n[nH]1,4.5%,-1.1,-3.4,-27.6,-1.0,
CCO/C(C)=C1\C(=O)Nc2ccccc21,11.1%,-3.7,-1.2,-7.1,2.4,
COc1ccc(NC(=O)Cn2nnc(C(=O)NCc3ccco3)c2N)cc1,.,.,-2.0,.,1.6,
CN1CCC(=NNc2ncnc3sc4c(c23)CCCC4)CC1,-8.5%,-22.2,-2.9,11.0,98.5,
Cc1nc(SCC(=O)NC(=O)NC(C)C)nc(C)c1C,1.6%,2.1,-0.8,.,-0.3,
CCOc1ccc(NC(=O)CCNC(=O)c2ccc(Br)cc2)cc1,.,.,-0.1,.,94.9,
CCn1c(SCC(=O)Nc2nc(-c3ccc(C)cc3)cs2)nnc1-c1ccccc1O,13.4%,-11.5,37.9*,9.6,-2.2,
COCCN(C(=O)c1ccccc1F)c1nc(-c2ccc(OC)cc2)cs1,.,.,-0.2,.,0.8,
COc1ccc(CCn2c(-c3ccc(OC)cc3)nc3c(c(=O)c4ccccc4n3C)c2=O)cc1,8.7%,.,-0.9,.,-6.3,
CC(=O)Nc1ccc(NC(=O)COC(=O)C2(c3ccc(Cl)cc3)CCCC2)cc1,-6.8%,5.3,0.2,-13.1,5.1,
COC(=O)C(NC(=O)c1ccccc1)=C(C)C,-4.0%,-1.5,-2.3,-31.9,-3.9,
S=C(Nc1ccccc1)Nc1ccc(OCc2ccc(Cl)cc2Cl)cc1,46.4%,-10.1,2.2,-49.9,77.5,
CO/N=C\c1cc(C(=O)c2ccc(Cl)cc2Cl)cn1C,7.7%,6.3,6.4,.,-2.8,
CN1CCN(C(=O)c2cnn(-c3ccccc3)c2NC(=O)c2ccccc2Cl)CC1,.,.,1.9,.,-5.8,
Cc1cccc(N2CCN(C(=O)CCn3c(=O)[nH]c4ccccc4c3=O)CC2)c1C,8.8%,-5.6,1.8,-10.8,14.0,
O=S(=O)(c1ccc(NC(=S)N/N=C/c2ccc(N3CCOCC3)cc2)cc1)N1CCOCC1,-2.8%,-17.6,-11.4,-12.5,5.8,
O=C(CCN1CCCCO1)N1CCCC(Nc2ccc(F)cc2)C1 (centres undefined),.,.,-1.7,.,-3.8,
COC(=O)CC1NCCc2cc(OC)c(OC)cc21 (centres undefined),0.1%,3.5,-2.5,.,-3.0,
CN(c1ccc(OCc2nnc(-c3ccccc3)o2)cc1)S(=O)(=O)c1ccccc1,9.5%,4.8,7.6,7.4,-17.8,
CCOc1cc(C2NC(=O)NC(O)(C(F)(F)F)C2C(=O)c2ccc(Cl)cc2)ccc1O (centres undefined),-7.9%,-3.5,0.6,-23.8,77.7,Arbovirus inh repeat=9.1
COC(=O)CSc1[nH]c2ccccc2c1[N+](=O)[O-],-1.4%,.,-52.8,.,-2.9,
O=[N+]([O-])c1cc(/C=N\Nc2nccs2)ccc1O,.,12.3,11.8,11.8,.,
COc1ccc(CC(=O)NCc2nnc(SCC(=O)Nc3ncc(C)s3)n2C)cc1,-3.3%,20.5,-1.1,.,7.0,
COc1cccc(Cn2nnc(C(=O)NCCc3ccc(Cl)cc3)c2N)c1,6.6%,-17.5,1.3,-55.1,3.7,
Cc1ccc(S(=O)(=O)/N=C(\Sc2ccccc2)c2ccccc2)cc1,-8.5%,-4.3,21.2,-13.3,6.2,
# (more compounds)
SMILES,Mtb H37Rv,Arbovirus inh,RecA splice inh,YopH inh,Mtb betalactam,others
COc1cccc(-c2noc(CCC(=O)NCCc3ccccc3)n2)c1,.,.,1.6,.,8.1,
Cc1ccc(Cl)cc1NC(=O)c1ccc(Cn2cc(Cl)cn2)cc1,66.1%,-28.1,1.0,-27.2,0.8,
CCN(CCn1cccn1)C(=O)c1ccc2nc(Cc3ccc(OC)cc3)oc2c1,.,.,-0.1,.,1.5,
CC(=O)C(N=Nc1ccccc1)(Sc1nnc(-c2ccccc2)n1-c1ccccc1)C(C)=O,1.1%,-21.6,0.5,-14.0,-3.6,
O=C(Nc1nnc(SCc2c(Cl)cccc2Cl)s1)c1ccc2ncsc2c1,29.9%,-13.4,12.2,.,-8.0,
N/C(=N\OC(=O)c1ccccc1)c1ccncc1,2.5%,6.3,1.8,.,-2.0,
NC(=S)N/N=C/c1coc2cc(Cl)ccc2c1=O,0.7%,-1.6,-2.7,-14.8,94.4,
O=C(CSC1CCCCC1)Nc1nccs1,.,3.7,2.2,0.6,-11.0,
CCOC(=O)C1CCN(C(=O)c2cc(COc3ccc(OC)c4ccccc34)on2)CC1,.,.,14.6,.,3.6,
COCC(C)n1c(COc2ccccc2F)nnc1SCc1c(C)noc1C (centres undefined),0.9%,-0.6,0.7,-35.3,-6.1,
CC1CCC(C(C)C)C(OC(=O)C[n+]2cc(-c3ccc(Cl)cc3)n3c2CCC3)C1 (centres undefined),-10.5%,.,6.9,.,-11.6,
O=C(c1ccc([N+](=O)[O-])o1)N1CCOCC1,-3.2%,-9.5,-5.2,.,-2.0,
COc1ccc(NC(=O)/C=C/c2cccc(Br)c2)cn1,.,.,-1.6,.,78.5,
CCn1c(CNC(=O)c2ccccc2F)nnc1SCC(=O)Nc1nncs1,.,.,-1.1,.,5.7,
CC1CC(N(C(=O)c2ccco2)c2ccccc2)c2ccccc2N1 (centres undefined),8.4%,-5.8,6.1,-6.5,-0.9,
CN(C)C(=O)c1cc2cc(Br)ccc2s1,22.6%,-2.0,-1.0,.,40.8,
CC(=O)OCn1ncc(N2CCOCC2)c(Br)c1=O,.,.,-0.2,.,0.2,
CC(C)c1nc2sc3c(SCC(N)=O)ncnc3c2c2c1CCC2,-4.2%,.,.,.,0.5,
CN(C)c1ccc(/C=N/NC(=O)CN(c2cccc(Cl)c2)S(C)(=O)=O)cc1Br,-10.5%,0.7,-5.2,-2.9,1.4,
Cc1nn(Cc2ccccc2)c(Cl)c1/C=C/C(=O)OC(C)C(=O)N1CCCC1 (centres undefined),-7.3%,5.3,1.7,.,-2.0,
CCCS(=O)(=O)N1CCN(Cc2ccc([N+](=O)[O-])cc2)CC1,5.2%,0.6,-1.7,-38.6,-8.7,
NC(=O)CC(NC(=O)c1ccccc1)c1ccc(N2CCc3ccccc3C2)c([N+](=O)[O-])c1 (centres undefined),.,.,-0.5,.,4.0,
OCCC1CN(Cc2cc(F)ccc2F)CCN1CCCc1ccccc1 (centres undefined),.,.,0.9,.,5.9,
CCOc1ccc(OCCCCN2CCCC2)cc1,-7.9%,-12.1,-0.4,2.2,0.5,
O=C(Nc1ccc(N2CCOCC2)cc1)C1CCN(S(=O)(=O)c2ccccc2F)CC1,11.7%,.,-0.4,.,-10.2,

# Fetched one by one from above, three records:
SMILES,Mtb H37Rv,Arbovirus inh,RecA splice inh,YopH inh,Mtb betalactam,others
NC(=O)CC(NC(=O)c1ccccc1)c1ccc(N2CCc3ccccc3C2)c([N+](=O)[O-])c1 (centres undefined),.,.,-0.5,.,4.0,
CC(C)c1nc2sc3c(SCC(N)=O)ncnc3c2c2c1CCC2,-4.2%,.,.,.,0.5,
Cc1nn(Cc2ccccc2)c(Cl)c1/C=C/C(=O)OC(C)C(=O)N1CCCC1 (centres undefined),-7.3%,5.3,1.7,.,-2.0,

# (list continues)
SMILES,Mtb H37Rv,Arbovirus inh,RecA splice inh,YopH inh,Mtb betalactam,others
CCCCN1C(=O)C2(OCCCO2)c2cccc(C)c21,.,.,-1.6,.,-2.8,
CCOc1ccc(Nc2oc(-c3ccc(Cl)cc3)nc2C#N)cc1,7.3%,-16.2,-1.8,-7.8,27.9,
COc1ccc(N2C(=O)CC(Nc3ccc(C)cc3)C2=O)cc1 (centres undefined),-2.6%,1.9,-0.3,9.7,1.8,
CCCCOP(=O)(c1ccc(N(C)C)cc1)C(O)c1cc(OC)c(OC)c(OC)c1 (centres undefined),3.0%,.,-5.6,.,0.7,
Cc1ccccc1C1c2[nH]c3ccccc3c2CCN1C(=O)c1ccc(=O)n(C)n1 (centres undefined),?,-6.2,5.7,.,74.0,
CS(=O)(=O)N(CC(=O)Nc1c(F)cccc1F)Cc1ccccc1,.,.,0.2,.,3.6,
COc1ccc(NC(=O)c2nc[nH]c2C(=O)NCc2ccccc2)cc1,.,.,-1.7,.,37.1,
O=C(O)c1ccn2c(C(=O)c3ccccc3)c(-c3ccccc3)cc2c1,-2.8%,.,1.2,.,32.8,
Cc1nn(CC(=O)Nc2sc3c(c2C#N)CCC(C(C)(C)C)C3)c(C)c1[N+](=O)[O-] (centres undefined),2.7%,-6.1,-2.8,-15.1,0.8,
CC(=O)c1ccc(OCCCC(=O)Nc2ccc(S(=O)(=O)N3CCOCC3)cc2)cc1,.,.,-1.2,.,-1.1,
COc1ccc2nc(SCC(=O)NC3CCCc4ccccc43)[nH]c2c1 (centres undefined),2.3%,2.3,-1.8,-14.0,1.4,
O=C(Oc1ccc(/C=N/NC(=O)c2ccccc2O)cc1)c1ccccc1,25.6%,4.0,-2.6,0.1,97.6,
CC(NC(=O)C(=O)N1CCOCC1)C(c1cccs1)N1CCN(c2ccccc2F)CC1 (centres undefined),.,.,1.1,.,-4.2,
CC(=O)c1c(C)nc2ccc(C)cc2c1-c1ccccc1,3.7%,-22.0,2.0,.,-0.7,
C=CCNC(=O)CN1CCC(c2nc3cc(C)c(C)cc3[nH]2)CC1,.,.,-2.8,.,-2.4,
CCc1cccc(NC(=O)C2CCCN2S(=O)(=O)c2ccc3c(c2)CC(C)N3C(C)=O)c1 (centres undefined),.,.,4.5,.,?,
CCOC(=O)C1(Cc2ccc(Cl)cc2)CCN(C(=O)c2ccoc2)CC1,4.1%,-3.4,8.5,.,-1.0,
CCn1c(CC(C)C)n[nH]c1=S,-6.6%,3.1,1.2,42.7,-2.9,
Cc1cccc(NC(=O)c2ccc(NCCc3ccccc3)c([N+](=O)[O-])c2)c1,5.2%,-7.4,-2.7,-19.3,4.1,
COc1cc(C(=O)NCC(=O)NCC2COc3ccccc3O2)cc(OC)c1OC (centres undefined),.,.,-2.1,.,3.2,
NCCS(=O)(=O)NC1CCCCC1,1.1%,1.2,-1.0,.,1.8,
NC(=O)c1ccc(-n2nc(C(F)(F)F)c3c2CCCC3)cc1,4.0%,3.1,-2.0,-13.8,2.1,
N#Cc1cccc(NC(=O)COC(=O)c2ccc3c(=O)n4c(nc3c2)CCC4)c1,-2.5%,0.9,-4.7,.,-1.9,
Cc1ccsc1/C=N/NC(=O)CNC(=O)c1ccccc1,.,.,0.3,.,-1.4,
COc1ccc2c(CC(=O)Nc3ncc(C)s3)coc2c1,9.5%,-0.4,1.1,.,-4.4,

# A draw from above in order of SMILES length, low to high:
SMILES,Mtb H37Rv,Arbovirus inh,RecA splice inh,YopH inh,Mtb betalactam,others
COc1ccc2c(CC(=O)Nc3ncc(C)s3)coc2c1,9.5%,-0.4,1.1,.,-4.4,
CS(=O)(=O)N(CC(=O)Nc1c(F)cccc1F)Cc1ccccc1,.,.,0.2,.,3.6,
CC(=O)C(N=Nc1ccccc1)(Sc1nnc(-c2ccccc2)n1-c1ccccc1)C(C)=O,1.1%,-21.6,0.5,-14.0,-3.6,

# Following part:
SMILES,Mtb H37Rv,Arbovirus inh,RecA splice inh,YopH inh,Mtb betalactam,others
COc1ccc(CN(C(=O)c2cccs2)c2nccs2)cc1OC,-12.0%,6.9,-0.5,-21.3,0.6,
CN(C)S(=O)(=O)c1cccc(CNCC2COc3ccccc3O2)c1 (centres undefined),.,.,-0.6,.,1.3,
O=C(CN1CCOCC1)NN=C(c1ccccc1)c1ccccc1,-3.4%,-2.3,-1.5,.,-2.2,
COc1ccc(NC(=O)c2cccs2)cc1,4.8%,-3.6,0.8,-4.6,-5.2,
CC(=O)N1CCOc2ccc(S(=O)(=O)N3CC(C)CC(C)C3)cc21 (centres undefined),.,.,-0.7,.,6.5,
CN1CCCN(S(=O)(=O)c2ccc3ccccc3c2)CC1,.,.,0.0,.,-2.3,
CCc1nn(CCCN2CCN(c3cccc(Cl)c3)CC2)c(=O)n1CCOc1ccccc1,4.6%&29.8%,3.7,2.5&0.2,.,5.3&-2.6,
CC(C)CC(=O)Nc1cccc(-c2nc3ccccc3o2)c1,-0.7%,-3.9,6.3,-38.9,0.8,
COc1ccc(C(=O)NCC2(c3ccc(OC)c(OC)c3)CCCC2)c(OC)c1,.,.,0.7,.,0.0,
COc1ccc(C)cc1Nc1nc(C)nc2c1oc1ccccc12,.,.,2.7,.,0.0,
CC(=O)Oc1ccc2c(=O)oc(-c3ccc([N+](=O)[O-])cc3)nc2c1,.,.,2.0,.,6.6,
Oc1ccc(Cl)cc1-c1cc(-c2ccccc2)n[nH]1,18.0%,32.8*,3.9,-14.4,-1.3,Arbovirus inh repeat=-7.0*
CCC(=O)Nc1nc2ccccc2n1CCN(CC)CC,-1.5%,6.0,-0.3,14.3,-9.2,
